Assay outcomes: PubChem BioAssay, National Center for Advancing Translational Sciences (NCATS)
TRPML1 inh: human mucolipin-1 channel inhibition. 0.02% of 390,000 active. TRPML1-inducible cells, Ca2+ dye fluorescence, FDSS; stronger effect = lower value; inhibition of EC80 agonist-evoked calcium signal. activity change, negative = inhibition, % (concentration not given with the values). Q9GZU1. AID 624415; in the data active means activity change below about -50%; inconclusive means about -30% to -50%; inactive means above about -30%;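 further: stimulus is agonist 54-4 at its EC80 concentration; on the % scale 0 is the no-effect control and ±100 the full control effect; compound concentration not given in the record; the text of the record puts the active cut at -80%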
Target sequence (Q9GZU1 whole entry, looked up): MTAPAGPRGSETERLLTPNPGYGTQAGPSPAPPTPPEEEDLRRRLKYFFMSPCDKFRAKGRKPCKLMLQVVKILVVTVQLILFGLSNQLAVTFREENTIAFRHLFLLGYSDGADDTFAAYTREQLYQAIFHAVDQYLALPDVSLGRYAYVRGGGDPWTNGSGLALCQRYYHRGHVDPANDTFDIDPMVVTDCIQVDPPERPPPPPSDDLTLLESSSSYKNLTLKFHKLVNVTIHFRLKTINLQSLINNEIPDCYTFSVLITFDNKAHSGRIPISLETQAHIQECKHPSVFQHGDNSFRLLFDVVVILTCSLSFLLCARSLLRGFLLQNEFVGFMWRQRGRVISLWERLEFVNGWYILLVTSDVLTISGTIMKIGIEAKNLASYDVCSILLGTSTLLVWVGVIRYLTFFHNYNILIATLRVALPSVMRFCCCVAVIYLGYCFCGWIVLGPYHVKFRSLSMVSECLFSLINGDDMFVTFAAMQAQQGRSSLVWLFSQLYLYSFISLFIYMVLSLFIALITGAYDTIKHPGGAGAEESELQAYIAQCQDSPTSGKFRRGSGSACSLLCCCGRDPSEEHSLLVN
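Calcium fluorescence in TRPML1-DL cells induced overnight with Tet: a 110 s read after compound pin addition, then a 110 s antagonist read after challenge with 54-4 at 4 uM final (EC80).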
Six1-Eya2 blk: inhibitors of human Six1/Eya2 interaction. activity change, % (test concentration not listed). AlphaScreen GST-Six1/His-Eya2 binding, biochemical; stronger effect = lower value; control for the full effect not named in the record. 0.56% of 360,000 active. AID 651725; in the data active = activity change below about -65%; inconclusive = about -30% to -65%; inactive = above about -30%; further: on the % scale 0 is the no-effect control and ±100 the full control effect; compound concentration not given in the record
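Six1/Eya2 binding was read as AlphaScreen signal after compounds were pinned into GST-Six1 plus His-tagged Eya2 (5X stock 250/500 nM) in pH 8.0 Tris/NaCl/TCEP buffer, beads added, then incubated 1 h, 37 C, dark.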
PINK1 modulator: PINK1 expression modulation | Potency, µM (top dose mostly 76.6 µM), inactives show at the highest dose activation (PINK1 increase), actives largely listed as activators | PINK1 immunofluorescence, high-content cytometry, 24 h | AID 624263 | 0.2% of 410,000 active; active = well fitted activation curve with a large enough effect; inconclusive = small, poorly fitted or top-dose-only effect; inactive = flat fitted curve, though single readings scatter; cell line not stated here;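 further: potency means the concentration at half of the fitted maximal effect; % of control where 0% means no effect; nearly all actives have a fitted effect of over 65% in size; a mitochondrial uncoupler was the plate control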
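A stable cell line was treated with compounds at 5 concentrations for 24 hours, with CCCP as control. PINK1 levels and mitochondrial localization were measured by immunofluorescence with mitochondrial, cell and nuclear markers after fixation, read by laser-scanning cytometry.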
D2 potentiator: positive allosteric modulators of human D2 dopamine receptor | DiscoveRx D2 beta-arrestin cells, luminescence, 90 min; 100% = 57 uM dopamine signal | 0.23% of 360,000 active | potentiation, % (concentration not given with the values) | AID 624464; active = potentiation of 50% or more; inconclusive = 30% to 50%; inactive = 30% or less;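 further: compound concentration not given in the record; tested on top of an EC20 dose of dopamine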
Target sequence (P14416 whole entry, looked up): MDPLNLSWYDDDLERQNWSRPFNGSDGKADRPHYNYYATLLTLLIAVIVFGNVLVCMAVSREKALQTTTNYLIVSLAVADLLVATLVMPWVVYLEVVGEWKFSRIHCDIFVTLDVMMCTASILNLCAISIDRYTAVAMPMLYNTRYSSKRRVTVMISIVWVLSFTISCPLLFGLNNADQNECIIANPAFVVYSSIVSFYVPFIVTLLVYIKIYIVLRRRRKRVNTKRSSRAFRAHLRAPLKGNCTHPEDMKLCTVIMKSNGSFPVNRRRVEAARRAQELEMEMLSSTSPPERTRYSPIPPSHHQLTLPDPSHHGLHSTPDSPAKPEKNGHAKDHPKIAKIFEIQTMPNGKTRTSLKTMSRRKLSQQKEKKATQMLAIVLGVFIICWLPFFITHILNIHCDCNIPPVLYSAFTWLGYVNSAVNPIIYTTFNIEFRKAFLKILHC
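PathHunter D2 cells, attached overnight at 37 deg C, received compound in DMSO plus dopamine at EC20 (50 nM final) for 90 min at 37 deg C. Beta-arrestin recruitment was read as luminescence after 1 h with detection reagent at ambient temperature.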
TRPML1 agonist: activates the human TRPML1 channel. Q9GZU1. TRPML1-expressing cells, Ca2+ dye fluorescence, FDSS; host cell line not named in the record; reference of the full effect not given here. activation, % (concentration not given with the values). 0.12% of 410,000 active; in the data active = activation above about 50%; inconclusive = about 30% to 50%; inactive = below about 30%; further: 0% is about no effect; the text of the record puts the active cut at 80%
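Cells: TRPML1-DL, 1X Tet inducer, ~16 h at 37 degrees C/5% CO2. Dye: ABD Ca8 no-wash + quencher, 45-90 min RT. Read: 10 s baseline, compound add, 110 s agonist phase; 54-4 EC80 (4uM final), 110 s antagonist phase.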
D2 agonist: agonists of human D2 dopamine receptor (beta-arrestin). P14416. DiscoveRx PathHunter D2 beta-arrestin, luminescence, 90 min; 100% = 57 uM dopamine signal. activation, % (concentration not given with the values). 0.084% of 360,000 active; in the data active = activation above about 40%; inconclusive = about 15% to 40%; inactive = below about 15%; further: compound concentration not given in the record; the text of the record calls up to 30% inactive
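Agonist mode: compounds alone added to overnight-plated D2 PathHunter cells for 90 min at 37 C, with 57 uM final dopamine (EC100) defining full response. Beta-arrestin recruitment detected by chemiluminescent reagent, read after 1 h at ambient temperature.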
Active calls of the source: *; ? = inconclusive; · = no result given; [ ] = remark or other dose.

SMILES	TRPML1 inh	Six1-Eya2 blk	PINK1 modulator	D2 potentiator	TRPML1 agonist	D2 agonist
O=C(c1cccc(C(F)(F)F)c1)N1CCC(O)(CS(=O)(=O)Cc2ccc(Cl)cc2)CC1	22	4	-3.8%[38.3 µM]	-1	0.4	-2.3
CC1(C)CC(=O)C=C(Nc2ccc(F)c(Cl)c2)C1	·	3	2.6%	-1	·	-2.2
Clc1ccc(SCCOCCN2CCc3ccccc3C2)cc1	17	4	?	-8	1.3	-2.5
O=c1cc(NCc2ccc3c(c2)OCO3)[nH]c(=O)n1-c1ccc(Cl)cc1	-11	7	6.7%	4	0.8	1.0
COc1cccc(NC(=O)c2ccc3c(c2)N(CC(=O)N2CCCCC2)C(=O)C(C)(C)O3)c1	-15	3	0.3%[38.3 µM]	-10	-0.2	-1.3
COc1ccc(NC(=O)CCS(=O)(=O)c2ccc(OC)cc2)cc1	11	-1	-4.0%	-6	-0.6	-1.7
CCOc1cc(C(=O)NCc2ccc3c(c2)CCN3C(=O)CC)cc(OCC)c1OCC	-6	·	1.6%	·	-0.7	·
CCc1cc(=O)oc2c3c(cc(OCC(=O)NCCCC(=O)O)c12)OC(C)(C)CC3	6	-2	0.8%	6	0.3	-0.5
O=C(COC(=O)CCSc1ccccc1Cl)NCc1ccco1	22	10	2.7%	-4	2.3	-5.3
Nc1c(C(=O)Nc2ccccc2)nnn1-c1ccc2c(c1)OCCO2	-18	1	0.3%	-2	-0.6	0.3
C[C@@H](NC(=O)[C@@H]1CCCN1C(=O)[C@@H]1CCCN1C(=O)c1ccccc1)c1ccccc1	·	11	-0.8%	·	-0.1	·
COc1ccc(-c2cc(NCc3ccc(F)cc3)n3cnnc3n2)cc1	-12	·	1.9%	·	-1.4	·

Record cards, from the list above. Order of screens: TRPML1 inh, Six1-Eya2 blk, PINK1 modulator, D2 potentiator, TRPML1 agonist, D2 agonist
COc1ccc(-c2cc(NCc3ccc(F)cc3)n3cnnc3n2)cc1 in the list: -12, ·, 1.9%, ·, -1.4, ·
COc1cccc(NC(=O)c2ccc3c(c2)N(CC(=O)N2CCCCC2)C(=O)C(C)(C)O3)c1 in the list: -15, 3, 0.3%[38.3 µM], -10, -0.2, -1.3
Clc1ccc(SCCOCCN2CCc3ccccc3C2)cc1 in the list: 17, 4, ?, -8, 1.3, -2.5
O=C(COC(=O)CCSc1ccccc1Cl)NCc1ccco1 in the list: 22, 10, 2.7%, -4, 2.3, -5.3
CCc1cc(=O)oc2c3c(cc(OCC(=O)NCCCC(=O)O)c12)OC(C)(C)CC3 in the list: 6, -2, 0.8%, 6, 0.3, -0.5

Later entries.
SMILES	TRPML1 inh	Six1-Eya2 blk	PINK1 modulator	D2 potentiator	TRPML1 agonist	D2 agonist
CC(=O)OCC(=O)c1c[nH]c2ccccc12	0	0	-0.1%	4	0.0	2.6
CCOc1ccc(N2C(=O)/C(=C/c3cccs3)N(C)C2=S)cc1	-1	-5	17%	-15	-0.8	-1.4
C=CCNC(=O)c1ccc2c(c1)N(CC)C(=O)c1ccccc1S2	-5	5	-0.8%	-13	-1.0	0.4
CCOc1ccc(N(CC(=O)NCCc2ccccc2)C(=O)CCC(=O)Nc2cc(C)ccn2)cc1	8	-3	3.0%	-9	0.0	-5.6
C/C(=N/NC(=O)CSc1ccccn1)c1ccc([N+](=O)[O-])cc1	-16	4	0.6%	-7	-1.2	-7.0
Cn1c(=O)cc(SCC(=O)NCCC2=CCCCC2)c2ccc(Cl)cc21	11	8	?	-14	0.7	-3.3
Cc1cnc(CNC(=O)C2CCC(=O)N(Cc3ccc(Cl)cc3)C2)[nH]1 (stereo unspecified)	-11	3	0.8%	-12	0.4	-0.3
O=C(COc1ccc(S(=O)(=O)N2CCCCC2)cc1)NCc1ccncc1	-4	9	-0.4%	-5	-0.2	0.5
COc1ccccc1-c1sc2cc3c(cc2c1C#CC1(O)CCCCC1)OCO3	48	-1	9.9%	-7	2.8	-6.6
NC(=O)c1ccccc1NC(=O)CN1CCN(Cc2ccc(Cl)cc2Cl)CC1	6	10	1.1%	-32	-0.4	-2.3
CCOc1ccccc1-n1nnc(S(=O)(=O)c2ccc(C)cc2)c1N	-6	·	1.3%	·	-0.4	·
CCc1ccc(C2CC(=O)NC(NC(=O)c3ccc(C(C)(C)C)cc3)=N2)cc1 (stereo unspecified)	-9	·	0.8%	·	-0.3	·
CN(C(=O)COC(=O)c1cc(NS(=O)(=O)c2cc([N+](=O)[O-])ccc2Cl)ccc1O)C1CCCCC1	-7	-14	0.2%	25	0.2	2.0
Cc1cccc([C@@H]2[C@@H]3C(=O)N(C)C(=O)[C@@H]3[C@@H]3C(=O)Nc4ccccc4C(=O)N23)c1	-18	14	0.1%	-8	-0.1	-0.5
O=[N+]([O-])c1nn(-c2ccc3c(c2)OCCO3)n(O)c1=NC1CCN(Cc2ccccc2)CC1	15	1	-1.0%	-1	0.6	6.4
Cc1ccc(OCCSc2nc3ccccc3n2CC(=O)O)cc1C	4	8	1.1%	1	1.0	-3.3
CCNC(=O)CC1C(=O)N(C)C(=S)N1NC(=O)c1ccc(Cl)cc1 (stereo unspecified)	-2	5	-2.7%	-7	1.6	-4.4
CCCCNC(=O)Nc1cc(C(=O)OC)ccc1C	-2	0	1.4%	-3	0.1	-6.4
O=C(Nc1ccncc1)c1cc2ccccc2cc1O	4	-3	?	137*	-0.2	?
COc1ccc(C)cc1NC(=O)c1sc2nc(C)nc(N3CCOCC3)c2c1C	-3	3	8.8%	-2	-0.4	7.0
Cc1ccc(NC(=O)c2cc3cc(C)ccc3n2C)cc1	-21	·	-0.3%	·	-0.3	·
COc1ccc(CCNC(=S)NC(=O)c2cc(OC)c(OC)c(OC)c2)cc1OC	9	-17	1.3%	6	2.0	1.8
Cc1ccc(NC(=O)c2cc(S(=O)(=O)N3CCOCC3)c(Cl)cc2Cl)cc1	-3	·	6.9%	·	1.8	·
Cc1nc2oc3ccccc3c(=O)c2cc1C(=O)O	8	-12	3.7%	-4	0.5	-0.3

D2 potentiator: hit marks shown above.
mol	TRPML1 inh	Six1-Eya2 blk	PINK1 modulator	D2 potentiator	D2 agonist
O=C(Nc1ccncc1)c1cc2ccccc2cc1O	4	-3	?	137*	?

New compounds follow
SMILES	TRPML1 inh	Six1-Eya2 blk	PINK1 modulator	D2 potentiator	TRPML1 agonist	D2 agonist
Cc1cc(C(F)(F)F)n(-c2nc(C(=O)N/N=C/c3ccc(F)cc3)cs2)n1	12	0	12%	-1	1.0	-1.4
COc1ccccc1NC(=O)C1=C(C)Nc2nc(-c3ccccc3)nn2C1c1ccccn1 (stereo unspecified)	-4	-4	0.1%	-5	-0.1	-2.5
CCOC(=O)C1=C(COC(=O)C(CC)c2ccccc2)NC(=O)NC1C (stereo unspecified)	8	7	4.3%	-2	-0.8	0.1
Cc1ccc(S(=O)(=O)NC(=O)NCc2ccc3c(c2)OCO3)cc1	-14	1	-0.9%	10	-0.2	-0.2
CCC(=O)Nc1cccc(C(=O)OCc2cc(=O)n3nc(CC)sc3n2)c1	19	·	0.3%	·	1.3	·
Cc1ccc(N2CC(O)Cn3c2nc2c3c(=O)[nH]c(=O)n2C)cc1 (stereo unspecified)	-10	-2	-0.1%	-2	-0.5	11
Cc1cc(C)c2cc(CN(CCCO)S(=O)(=O)c3ccccc3F)c(=O)[nH]c2c1	3	-7	1.0%	-2	0.3	-0.8
CCN1CCN(CCNC(=O)Cn2c(=O)c3cccn3c3ccc(F)cc32)CC1	19	1	1.4%	-15	-0.3	-9.1
N=c1ncn(C2OC(CO)C(O)C2O)c2nc(Br)[nH]c12 (stereo unspecified)	-11	-11	1.3%	-9	-0.2	-5.2
CS(=O)(=O)c1ccc(NC(=O)CCN2C(=O)C3CCCCC3C2=O)cc1 (stereo unspecified)	-12	-6	1.7%	-9	0.3	-3.1
O=C(/C=C/c1ccc2c(c1)OCO2)NCCS(=O)(=O)N1CCN(c2ccccc2)CC1	-1	-4	10%	-17	-0.7	0.3
Cc1cccnc1CCNC(=O)C1CCC(=O)N(Cc2cccc(F)c2)C1 (stereo unspecified)	22	4	1.1%	-24	0.1	2.1
Cc1cccc(-n2ncc(C(=O)Nc3ccc4c(c3)OCO4)c2C2CCN(C(=O)OC(C)(C)C)CC2)c1	-10	·	-0.8%	·	0.4	·
Cc1cccc(N2C(=O)c3ccc(C(=O)Nc4ccccn4)cc3C2=O)c1	12	-1	1.3%	-4	0.4	1.0
Cc1ccc(S(=O)(=O)Nc2nc3n(n2)C(c2ccc(F)cc2)C=C(c2ccccc2)N3)cc1 (stereo unspecified)	15	·	1.4%	·	0.3	·
CC(C)c1ccc(CNc2nc(-c3ccco3)nn2C(=O)c2ccc([N+](=O)[O-])cc2)cc1	?	·	6.6%	·	1.3	·
CCOc1ccccc1C(=O)Nc1cc(OC)ccc1OC	19	-11	-0.4%	-14	-0.2	-5.5
CN1CCN(c2nc3c(c(=O)[nH]c(=O)n3C)n2Cc2ccccc2F)CC1	-10	0	0.7%	13	-1.3	2.2
COc1cccc(-c2nc(COc3ccc(Cl)cc3Cl)no2)c1	11	53	9.3%	-12	-0.6	-4.8
COc1cccc(CNC(=O)CCCc2c[nH]c3ccccc23)c1	-2	-2	0.7%	-5	-0.1	-0.2
Cc1nc(-c2ccc(C(=O)Nc3cc(S(N)(=O)=O)ccc3C)cc2)cs1	-2	-3	1.3%	-13	-0.5	-4.1
COC(=O)c1cc(NC(=O)Nc2ccccc2)ccc1Cl	14	0	14%	-23	1.2	-0.7
O=C(OCCN=C1NS(=O)(=O)c2ccccc21)c1ccncc1	-5	0	11%[38.3 µM]	-4	0.0	-2.8
COc1cc(/C=C/C(=O)c2ccc(NS(=O)(=O)c3ccc(C)cc3)cc2)ccc1OC(F)F	9	1	-3.0%	5	1.4	-2.2
CC(C)(C)OC(=O)N1CCCC(C(=O)Nc2ccc(C(=O)N3CCOCC3)cc2)C1 (stereo unspecified)	-8	3	0.1%	-4	-0.9	-2.7
CCSc1nnc(NC(=O)c2cccs2)s1	1	8	7.3%[38.3 µM]	-9	-0.4	-2.8
C=C(c1ccc(OC)cc1)c1ccc(OC)cc1	3	12	?	2	0.8	4.3
O=C(Nc1ccc(-c2nc3ccccc3o2)c(O)c1)c1ccccc1	1	·	2.3%	·	-0.7	·
Cc1cc(NC(=O)c2ccc(Br)o2)ccc1NC(=O)c1ccco1	-16	5	-0.8%	1	-0.1	-1.8
COc1ccc(NC(=O)Nc2cccc(Cl)c2Cl)c(OC)n1	20	5	11%	-3	1.4	0.0
COC(=O)c1ccccc1Oc1ccc(NC(=O)CCCl)cc1	5	0	-0.3%	7	-0.1	-6.1
COc1ccc(OC)c(-c2csc(NC(=O)COC(=O)c3ccc(NC(=O)CC#N)cc3)n2)c1	15	-16	1.1%	-1	0.6	-0.7

Gathered by group, those above with bromine (2)
SMILES	TRPML1 inh	Six1-Eya2 blk	PINK1 modulator	D2 potentiator	TRPML1 agonist	D2 agonist
N=c1ncn(C2OC(CO)C(O)C2O)c2nc(Br)[nH]c12 (stereo unspecified)	-11	-11	1.3%	-9	-0.2	-5.2
Cc1cc(NC(=O)c2ccc(Br)o2)ccc1NC(=O)c1ccco1	-16	5	-0.8%	1	-0.1	-1.8
